Assay outcomes from PubChem BioAssay.
PINK1 modulator – PINK1 expression modulation; PINK1 immunofluorescence, high-content cytometry, 24 h; Potency, µM (titrated, usually from 76.6 µM), for inactives: top-dose activation (PINK1 increase), usual class: activators; actives 0.2% (n = 410,000); active = well fitted activation curve with a large enough effect; inconclusive = small, poorly fitted or top-dose-only effect; inactive = flat fitted curve, though single readings scatter; cell line not stated here;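 also: potency is read from the fitted curve at half-maximal effect; % of control where 0% means no effect; nearly all actives have a fitted effect of over 65% in size; a mitochondrial uncoupler was the plate control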
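PINK1 protein, normally rapidly degraded, was detected by immunofluorescence after 24 hour compound treatment of a stable cell line. Titration data (5 concentrations) came from laser-scanning cytometry, with CCCP-treated wells as controls.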
CtBP-E1A blk – inhibitors of CtBP/E1A interaction; AID 651724; activity change, % (test concentration not listed); actives 0.49% (n = 340,000); AlphaScreen GST-E1A/His-CtBP binding, 1536-well; stronger effect = lower value; control for the full effect not named in the record; in the data active means activity change below about -65%; inconclusive means about -30% to -65%; inactive means above about -30%; also: % is scaled to controls: 0 for no effect and ±100 for the full control effect; compound concentration not given in the record
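In 5 uL wells, 23 nL compound meets equimolar GST-E1A and His-CtBP (5X stock 125 nM each) for 2 h, 37 °C. Beads (5X, 50 ug/mL) then 1 h, 37 °C, dark.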
D2 ag – agonists of human D2 dopamine receptor (beta-arrestin); activation, % (concentration not given with the values); DiscoveRx PathHunter D2 beta-arrestin, luminescence, 90 min; 100% = 57 uM dopamine signal; actives 0.084% (n = 360,000); P14416; in the data active = activation above about 40%; inconclusive = about 15% to 40%; inactive = below about 15%; also: compound concentration not given in the record; the text of the record calls up to 30% inactive
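Agonist mode: compounds alone added to overnight-plated D2 PathHunter cells for 90 min at 37 C, with 57 uM final dopamine (EC100) defining full response. Beta-arrestin recruitment detected by chemiluminescent reagent, read after 1 h at ambient temperature.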
D2 PAM – potentiates the human D2 dopamine receptor allosterically; actives 0.23% (n = 360,000); P14416; potentiation, % (no concentration beside the values); DiscoveRx D2 beta-arrestin cells, luminescence, 90 min; 100% = 57 uM dopamine signal; active = potentiation of 50% or more; inconclusive = 30% to 50%; inactive = 30% or less;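 also: compound concentration not given in the record; tested on top of an EC20 dose of dopamine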
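PathHunter beta-arrestin assay in DiscoveRx D2 cells. Compounds were added with an EC20 of dopamine (50 nM final) for 90 min at 37 deg C. Luminescence was read 1 h after detection reagent, with 57 uM dopamine as the EC100 control.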
TRPV1 PAM – human TRPV1 potentiation. actives 0.02% (n = 320,000). TRPV1-expressing cells, Fluo-8 calcium influx, capsaicin EC20 potentiation; host cell line not named in the record; control for the full effect not named in the record. AID 540277. Q8NER1. potentiation, % at 8.33 µM; active means potentiation above 80%; inconclusive means 30% to 80%; inactive means below 30%; also: 0% is about no effect
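TRPV1-expressing cells were cultured overnight at 35.5C and loaded with Fluo-8 calcium dye for 40 to 90 min at room temperature. After a 10 s baseline, compound was added and calcium influx was read kinetically for 3 min (ex 480/em 520 nm).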
Sfp inh – inhibitors of Bacillus subtilis Sfp phosphopantetheinyl transferase; Biochemical Sfp PPTase activity, qHTS; Q9F4F7; actives 3.5% (n = 310,000); Potency, µM, without a hit: max response, negative = inhibition, actives largely listed as inhibitors; active = well fitted inhibition curve with a large enough effect; inconclusive = small, poorly fitted or top-dose-only effect, or another doubt; inactive = no such curve, though single readings can be large or run the other way;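 also: the enzyme is Sfp with the accession as filed and its product quenches rhodamine fluorescence; potency is read from the fitted curve at half-maximal effect; 0% = enzyme reaction without inhibitor and -100% = no enzyme wells; top concentration of the series not given in the record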
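Buffer: 50 mM Hepes-Na pH 7.6, 10 mM MgCl2, 0.01% Nonidet P-40, 0.01% BSA. Enzyme 15 nM, pre-exposed to compound 15 min; substrates then added and fluorescence change tracked over 30 min.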
Six1-Eya2 blk – inhibitors of human Six1/Eya2 interaction. Q15475+O00167. AlphaScreen GST-Six1/His-Eya2 binding, biochemical; stronger effect = lower value; control for the full effect not named in the record. activity change, % (no concentration beside the values). actives 0.56% (n = 360,000); in the data active = activity change below about -65%; inconclusive = about -30% to -65%; inactive = above about -30%; also: % is scaled to controls: 0 for no effect and ±100 for the full control effect; compound concentration not given in the record
Target sequence (O00167 whole entry, looked up): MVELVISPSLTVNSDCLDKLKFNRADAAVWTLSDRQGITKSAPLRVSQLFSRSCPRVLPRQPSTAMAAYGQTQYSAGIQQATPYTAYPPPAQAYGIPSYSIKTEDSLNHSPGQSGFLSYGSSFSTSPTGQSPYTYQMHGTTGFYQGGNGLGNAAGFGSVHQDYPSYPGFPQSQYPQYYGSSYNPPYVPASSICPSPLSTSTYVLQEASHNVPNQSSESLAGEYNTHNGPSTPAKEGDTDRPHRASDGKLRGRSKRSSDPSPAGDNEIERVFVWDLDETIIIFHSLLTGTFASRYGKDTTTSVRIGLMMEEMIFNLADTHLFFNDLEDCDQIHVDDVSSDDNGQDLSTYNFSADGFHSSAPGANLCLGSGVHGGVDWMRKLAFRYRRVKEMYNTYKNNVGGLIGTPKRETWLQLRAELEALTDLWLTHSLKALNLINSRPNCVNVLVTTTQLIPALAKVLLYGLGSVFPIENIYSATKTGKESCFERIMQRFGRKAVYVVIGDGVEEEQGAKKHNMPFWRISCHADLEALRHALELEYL
Target sequence (Q15475 whole entry, looked up): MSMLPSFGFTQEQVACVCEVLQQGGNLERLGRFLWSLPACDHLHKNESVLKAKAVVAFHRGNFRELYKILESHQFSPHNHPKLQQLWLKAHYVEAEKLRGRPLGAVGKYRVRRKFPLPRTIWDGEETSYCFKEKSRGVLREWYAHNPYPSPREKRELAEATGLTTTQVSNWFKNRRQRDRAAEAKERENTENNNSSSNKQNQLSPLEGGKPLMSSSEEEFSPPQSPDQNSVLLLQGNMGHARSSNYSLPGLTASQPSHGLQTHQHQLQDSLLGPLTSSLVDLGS
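GST-Six1 + His-Eya2 (5X stock: 250/500 nM); Tris pH 8.0, 300 mM NaCl, 0.05% BSA, 0.02% Tween 20; GSH donor/Ni acceptor beads; 1 h 37 °C dark; AlphaScreen readout.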
Active calls of the source: *; ? = inconclusive; / = not tested or not shown; & = joins results of further samples; [ ] = another dose, or the depositor's remark. No enrichment for hits; about 3.7% have a hit in one of these screens.

SMILES	PINK1 modulator	CtBP-E1A blk	D2 ag	D2 PAM	TRPV1 PAM	Sfp inh	Six1-Eya2 blk
O=C(N/N=C/c1ccc2c(c1)OCO2)c1ccc(COCC(F)(F)C(F)F)cc1	6.8%	2	2.8	-6	-7	-5%	0
Cc1cc(C)cc(NC(=O)COC(=O)CNC(=O)C2CCCCC2)c1	-0.1%	1	13	-3	2	/	4
COc1cc2c(cc1OC)-c1nnc(C)n1C1(CCCC1)C2	0.9%	1	2.2	-3	5	10%	-7
Cc1ccc(N(C)S(=O)(=O)c2cccc(C(=O)OCC(=O)c3c(N)n(C)c(=O)n(C)c3=O)c2)cc1	-2.2%	?	0.4	-2	/	/	-29
O=C(NCCc1ccccc1)c1ccc2nccnc2c1	-0.5%	8	-1.8	1	11	16%	0
COCCCNCC1C(Oc2ccc(Cl)cc2)C(=O)N1c1ccccc1C (stereo not given)	7.5%	5	-5.7	-20	?	-4%	6
Nc1ccc(S(=O)(=O)Nc2nccc(/C=C/c3ccc(Cl)cc3)n2)cc1	0.2%	-76*	-1.2	-4	1	19%	?
CC(=O)N1CCN(c2ccc(NCc3ccc(C(C)C)cc3)cc2)CC1	0.0%	-18	6.3	63*	-8	50µM*	-30
O=C(CNC(=O)c1cccc(OC(F)F)c1)OCn1nnc2ccccc2c1=O	2.9%	3	-0.1	-4	0	-15%	9
COc1ccc(OC)c(NC(=O)c2c(NC(=O)CCC(=O)O)sc3c2CCCCC3)c1	-0.1%	12	-0.9	-1	20	50µM*	-2
Cc1ccc(C)c(S(=O)(=O)N2CCN(C(=O)c3cncc(Br)c3)CC2)c1	1.2%	-12	-4.0	-8	20	2%	-2
CC1(C(=O)NS(=O)(=O)C2CC2)CCN(C(=O)C2(c3ccc(Cl)cc3)CCCC2)C1 (stereo not given)	1.2%	6	-5.1	2	/	/	5
CC(C)C[C@@]12C(=O)N(c3cccc(F)c3)C(=O)N1[C@H](c1ccc(Cl)cc1)[C@@H]1C(=O)N(C3CCCCC3)C(=O)[C@@H]12	-0.6%	-1	-3.4	-13	-20	/	-4
COC(=O)C1CSC(c2ccc(Cl)cc2)N1C(=O)c1ccccc1 (stereo not given)	1.0%	/	-3.9	-3	-4	-15%	-1
Cn1c(=O)c2c(nc(SCCCO)n2Cc2ccccc2Cl)n(C)c1=O	1.9%	-18	4.0	-7	-8	28%	0
OC(CN1CCOCC1)CN1CCOCC1	3.5%&-0.7%	3	-2.0	-9	-16	13%	2
CC(=O)c1cc2c(cc1NC(=O)C1CC1)OCO2	-1.1%	8	-1.2	-7	17	2%	0
CC1(C)Oc2ccc3ccc(=O)oc3c2-c2cnoc21	0.0%	0	-1.4	-8	-9	15%	22
COc1cccc(NC(=O)CN2C(=O)NC(Cc3c[nH]c4ccccc34)C2=O)c1 (stereo not given)	-2.7%	-20	-2.7	-1	/	/	-16
CCC(C)C(Nc1ccc(C(=O)OC)cc1[N+](=O)[O-])C(=O)OC (stereo not given)	-0.2%	-13	-2.3	-7	-3	-7%	-17
Cc1cccc(NS(=O)(=O)c2cc(C(=O)NCCC3=CCCCC3)ccc2Cl)c1	-6.3%[38.3 µM]	2	2.1	1	-7	-7%	0
CCN(CC)CCN(C)C(=O)c1ccc(OC2CCN(C(=O)C3CC3)CC2)cc1	-0.3%	4	-1.0	-9	13	12%	10
O=C1NC(=O)C(c2ccc(Cl)cc2)N1 (stereo not given)	-0.3%	18	-5.7	-7	-4	-1%	2
CC(=O)NC(Cc1cc(C)ccc1C)C(=O)N1CCN(C(=O)c2ccc(Br)cc2)CC1 (stereo not given)	-0.1%	5	-6.3	-7	-1	11%	-6
O=Cc1cc(N=Nc2ccc(S(=O)(=O)O)cc2)ccc1O	1.3%	-2	-8.2	-14	/	/	-28
COc1ccccc1CNC(=O)c1cc(C)nn1-c1ccccc1	5.5%	7	-1.1	-2	-7	7%	3
Oc1ccc(/C=N/N=C/c2ccc(O)cc2)cc1	0.4%	-10	0.5	4	-1	23%	3
COC(=O)Cc1ccc(NC(=S)NCCC(C)C)cc1	0.5%	14	-0.1	-6	-1	-6%	5
COc1cccc(-c2csc(N3CCN(C(=S)Nc4cccc(C)c4)CC3)n2)c1	-0.5%	/	-5.5	-15	11	?	-16
COC(=O)c1cccc(NC(=S)Nc2cc(Cl)ccc2OC)c1	0.6%	0	-1.2	-29	4	20µM*	-1
Cc1ccc(C)c(S(=O)(=O)Nc2ccc(C(=O)NCC(c3ccco3)N(C)C)cc2)c1 (stereo not given)	0.9%	7	0.0	-20	-7	/	-10
Cc1ccc(O)c(NC(=O)C2=CC(c3ccco3)=NS(=O)(=O)N2C)c1	-0.3%&-2.3%	-1	-0.1	11	5	9%	-15
CCC1C/C(=C\c2cccnc2)C(=O)/C(=C/c2cccnc2)C1 (stereo not given)	-2.3%	0	0.3	-21	0	?	-8
c1ccc(C(c2nnnn2C2CCCC2)N2CCN(c3nc4ccccc4s3)CC2)cc1 (stereo not given)	2.5%	0	0.2	2	-5	-6%	3
Clc1ccc(OCc2nnc3n2N=C(c2ccc4c(c2)OCCO4)CS3)c(Cl)c1	/	0	-1.6	-20	-11	?	2
CCSc1nc(C2CC2)cc(-c2ccco2)c1C#N	6.0%	46	-1.7	-1	-7	?	36
O=C(N=C1SC2CS(=O)(=O)CC2N1Cc1ccccc1Cl)C1CCCO1 (stereo not given)	-1.5%	/	0.9	-11	3	10%	-1
Cc1ccc(C(=O)Nc2ccc(Cl)cc2C(F)(F)F)c(Cl)c1	1.1%	11	-1.0	-6	-21	12%	6
CCOC(=O)C1(CCc2ccccc2)CCN(Cc2ccc(OC)cc2)CC1	0.6%	-21	-4.8	-12	1	9%	-16
Cc1ccc(-c2nc(NC(=O)CSc3nnc4scc(-c5ccccc5)n34)ns2)cc1	4.1%	2	0.3	-2	-4	35µM*	-10
CSc1nnc(SCC#N)s1	-2.8%	-6	-2.7	-5	-8	2%	-5
CC1(C)C2CCC1(CS(=O)(=O)N1CCC(C(N)=O)CC1)C(=O)C2 (stereo not given)	1.9%	0	-3.8	-16	1	7%	26
CC(Cc1cccnc1)NC(=O)c1cc(COc2ccc(F)cc2Cl)on1 (stereo not given)	3.3%	0	-2.5	-17	-8	3%	18
Cc1ccc(N2C(=O)C3C4C=CC(CC4)C3C2=O)c([N+](=O)[O-])c1 (stereo not given)	-0.2%	4	0.8	3	2	3%	4
COc1ccc(C)cc1NCc1cccc(OC)c1OC	2.9%[38.3 µM]	-23	1.2	-5	-11	-20%	?
COc1ccc2c(c1)Sc1ccccc1N2CCN(C)C	-0.6%	?	-4.0	-37	-10	-15%	?
CCSC(C)CC1C/C(=N/O)c2c(CC)noc2C1 (stereo not given)	?	0	-0.6	-2	29	11%	-3
O=C(O)CC(SCC(=O)NC1CCCc2ccccc21)C(=O)O (stereo not given)	1.4%	1	-2.8	-8	3	23%	6
COc1ccc(OC)c(-n2nnnc2SCC(=O)Nc2ccccc2OC)c1	-0.2%	-3	4.0	-1	15	0%	-3
COc1cc(OC)cc(-c2oc(=O)c3cc(OC)c(OC)cc3c2C#CCCO)c1	1.2%	-2	1.0	6	/	/	-3
COc1ccc(OC)c(C(=O)CSc2nccc(-c3ccc(Br)cc3)n2)c1	1.1%[38.3 µM]	6	0.1	-15	4	?	3
O=C(O/N=C/c1ccc(Br)cc1)c1ccc(F)cc1	-0.9%	3	-1.7	-7	/	/	-18
Oc1cc(Br)ccc1C=Nc1ccc(N2CCCCC2)cc1	-0.2%	-9	-1.5	0	-2	-19%	-2
CSc1ccccc1-c1nnc(-c2ccc(Cl)cc2)o1	0.7%	7	-2.1	-9	-6	?	16
COC(=O)Cc1[nH]nc2c1C(c1c[nH]c3ccccc13)C(C#N)=C(N)O2 (stereo not given)	1.9%	8	-1.9	-3	8	-11%	3
CCCN(Cc1ccccc1)C(=O)Nc1ccc2c(c1)nnn2C	/	0	-3.4	-7	/	8%	0
C[C@@H](C(=O)Nc1ccccc1N1CCOCC1)N1C(=O)C2CCCCC2C1=O (stereo not given in full)	1.6%	-20	-2.4	-1	/	/	-3
Cn1cnc(S(=O)(=O)Nc2ccc(OC(F)F)cc2)c1	0.2%	0	-2.9	4	-4	22%	3
CN(C(=O)CCN1C(=O)/C(=C/c2ccc(F)cc2)SC1=S)C1CCS(=O)(=O)C1 (stereo not given)	0.4%	0	-1.8	-14	/	/	-3
CCC(C(=O)NCc1cccnc1)n1nc(C)n2c(cc3occc32)c1=O (stereo not given)	0.3%	6	-4.4	-7	4	14%	2

Five structures out of the list, sorted by formula weight, smallest number first:
SMILES	PINK1 modulator	CtBP-E1A blk	D2 ag	D2 PAM	TRPV1 PAM	Sfp inh	Six1-Eya2 blk
Cn1cnc(S(=O)(=O)Nc2ccc(OC(F)F)cc2)c1	0.2%	0	-2.9	4	-4	22%	3
CCC(C(=O)NCc1cccnc1)n1nc(C)n2c(cc3occc32)c1=O (stereo not given)	0.3%	6	-4.4	-7	4	14%	2
C[C@@H](C(=O)Nc1ccccc1N1CCOCC1)N1C(=O)C2CCCCC2C1=O (stereo not given in full)	1.6%	-20	-2.4	-1	/	/	-3
COc1ccc(OC)c(-n2nnnc2SCC(=O)Nc2ccccc2OC)c1	-0.2%	-3	4.0	-1	15	0%	-3
COc1cc(OC)cc(-c2oc(=O)c3cc(OC)c(OC)cc3c2C#CCCO)c1	1.2%	-2	1.0	6	/	/	-3

Further records follow:
SMILES	PINK1 modulator	CtBP-E1A blk	D2 ag	D2 PAM	TRPV1 PAM	Sfp inh	Six1-Eya2 blk
O=C(Nc1ccc(Cl)cc1)Nc1cccc2nsnc12	?	/	0.8	-18	-10	?	36
Cc1ccccc1SCc1noc(C(=O)NCC2CCCO2)c1C(=O)O (stereo not given)	-1.3%	-2	-1.6	-34	7	?	-1
CCCCCCCn1ccc(O)c(CC(=O)OC)c1=O	0.8%	-23	0.7	5	13	21%	-4
O=S(=O)(Nc1nc2ccccc2nc1N1CCN(c2ccccc2)CC1)c1ccc(F)cc1	15%	-14	-1.4	-3	-9	-9%	-9
COc1ccc(N2CCN(C(CNC(=O)C(=O)NCc3cccs3)c3ccco3)CC2)cc1 (stereo not given)	0.7%	3	-1.9	8	12	1%	-1
COc1ccc(C(CNC(=O)c2ccc(NS(=O)(=O)c3ccc4c(c3)OCCO4)cc2)N(C)C)cc1 (stereo not given)	0.1%	4	-4.3	-40	-2	/	-1
CC(C)CNC(=O)c1cc(S(=O)(=O)N2CCOCC2)ccc1N1CCCC1	-0.8%	0	-1.7	4	2	8%	8
